StopGo FLuc – FMDV 2A StopGo reporter, firefly signal; Potency, µM (series often up to 57.5 µM), for inactives: top-dose signal change, negative = less light; 0.23% of 120,000 active; AID 1745856; HEK cells with a luciferase reporter of 2A StopGo recoding; active = well fitted falling curve with a large enough effect; inconclusive = small, poorly fitted or top-dose-only effect; inactive = no such curve, though single readings can be large or run the other way; also: nearly all actives have a fitted effect of over 60% in size; overnight with compound
2A Renilla – FMDV 2A StopGo reporter, Renilla signal; HEK cells with a luciferase reporter of 2A StopGo recoding; Potency, µM (series often up to 57.5 µM), without a hit: top-dose signal change, negative = less light; 0.32% of 120,000 active; AID 1745857; active means well fitted falling curve with a large enough effect; inconclusive means small, poorly fitted or top-dose-only effect; inactive means no such curve, though single readings can be large or run the other way; also: nearly all actives have a fitted effect of over 55% in size; overnight with compound
* hit, by the source's call; ? = inconclusive; & = joins results of further samples; [ ] = another dose, or the depositor's remark. % is scaled to controls: 0 for no effect and ±100 for the full control effect; potency is read from the fitted curve at half-maximal effect.

nr | canonical_smiles | StopGo FLuc | 2A Renilla
1 | CC(C)=C(/C(=C/CS(=O)(=O)c1ccc(C)cc1)S(=O)(=O)c1ccccc1)S(=O)(=O)c1ccccc1 | -11% | 0%
2 | N#Cc1ccccc1COC(=O)c1cccc(OC(F)F)c1 | 22% | -1%
3 | CN(CC(=O)Nc1ccc(Cl)cc1)C(=O)c1ccc2c(c1)nnn2C | 19% | 12%
4 | Cc1cccc(-n2nc(C)c3c2NC(=O)CSC3c2ccccc2Cl)c1 (stereo not given) | -7% | -1%
5 | CCc1ccc(CSc2nc(-c3ccc(OC)cc3)nc3c2Cc2c(CO)cnc(C)c2O3)cc1 | -17% | 9%
6 | Cc1cccc(NC(=O)N2CCCC2c2cccs2)c1C (stereo not given) | 33% | 15%
7 | COc1cc(Cn2c(=O)sc3ccccc32)ccc1OCCC(C)C | -5% | ?
8 | C[C@@H]1O[C@@H](OC[C@H]2O[C@@H](Oc3c(-c4ccc(O)c(O)c4)oc4cc(O)cc(O)c4c3=O)[C@H](O)[C@@H](O)[C@@H]2O)[C@H](O)[C@H](O)[C@H]1O | -9%[11.5 µM] | -3%
9 | Cc1ccc2oc(-c3ccc(C)c(NC(=O)COc4ccccc4)c3)nc2c1 | 24% | -9%
10 | CNC(=O)NC(=O)CN(C)Cc1ccsc1 | -4% | 1%
11 | CC(C)=CC[N+](C)(C)CC#Cc1ccccc1 | 3% | 23%[1.06 µM]
12 | CCOC(=O)c1cnc(SCC(=O)Nc2ccc(C)c(C)c2)nc1N | 52%[activator] | 17%
13 | CCCCOc1ccc(C(=O)Nc2ccc(-c3cc4ccccc4oc3=O)cc2)cc1 | 0% | -16%
14 | N#Cc1c(N)nc2c(c1-c1ccc(Cl)cc1Cl)CCCC2 | -5% | -3%
15 | COc1cccc(N2CCN(C(=O)c3cc4c(=O)oc5ccc(C)cc5c4s3)CC2)c1 | -17% | -5%
16 | CC(C)N(C(=O)Cn1cc(SCC(=O)Nc2ccccc2F)c2ccccc21)C(C)C | 4% | 11%

A second format for 2 compounds above.
11: CC(C)=CC[N+](C)(C)CC#Cc1ccccc1
  StopGo FLuc = 3%	2A Renilla = 23%[1.06 µM]
10: CNC(=O)NC(=O)CN(C)Cc1ccsc1
  StopGo FLuc = -4%	2A Renilla = 1%

Carrying on.
nr | canonical_smiles | StopGo FLuc | 2A Renilla
17 | Cc1cccc(C(=O)OCC(=O)c2cc(C)ccc2C)c1 | 172%[activator] | -2%
18 | Cc1ccc(NC(=O)C2CCC(CNS(=O)(=O)c3cccs3)CC2)cc1C (stereo not given) | 0% | -9%
19 | O=C(NCc1cccnc1)c1cc(S(=O)(=O)C2CCS(=O)(=O)C2)ccc1F (stereo not given) | 1% | -5%
20 | O=C(Nc1ccc(Cl)c(C(F)(F)F)c1)c1nn(-c2cccc(Cl)c2)ccc1=O | 63%[activator] | 4%
21 | CC(C)NC(=O)CSc1nnc(-c2cc3c(s2)CCC(C(C)(C)C)C3)n1C (stereo not given) | 63%[activator] | -24%
22 | Cc1ccc(C(=O)Nc2cccc3cccnc23)cc1C | 193%[activator] | 37%[activator]
23 | COc1ccc(C(=O)Nc2cc(NC(=O)C(C)C)ccc2C)cc1F | 21% | -4%
24 | Cc1ccc(S(=O)(=O)NCC(=O)OCc2cc(=O)oc3cc(C)ccc23)cc1 | 13% | -4%
25 | COc1ccc(CN(C)CC(O)COc2ccccc2)c(OC)c1OC (stereo not given) | 6% | 4%
26 | Cc1cccc(CNS(=O)(=O)c2ccc(-c3cnc(C4CC4)o3)cc2)c1 | ? | -15%&-2%
27 | COC(=O)CNC(=O)N1Cc2c(C)nn(-c3ccccc3)c2-n2cccc2C1c1cccc(C)c1 (stereo not given) | -12% | -11%
28 | Cc1cc2oc(=O)cc(CN(C)Cc3nc4ccccc4c(=O)[nH]3)c2cc1C | 6% | 0%
29 | CCC(C)(C)C(=O)NCc1cccs1 | -8% | -13%
30 | CCC(C)(C(=O)NC1CCCC1)N(Cc1cccs1)C(=O)CNC(=O)c1ccccc1 (stereo not given) | 19% | 48%[activator]
31 | CC(NC(=O)c1cccnc1)c1ccc(C(F)(F)F)cc1 (stereo not given) | 15% | 1%
32 | O=C(Nc1ccc(F)c(Cl)c1)c1nc2ccccc2nc1N1CCCCC1 | 6% | 8%
33 | CCOc1ccc(Nc2cc(C)c(C#N)c3nc4ccccc4n23)cc1 | 1% | 5%
34 | COc1ccc(OC)c(NC(=O)N2CCC3(CC2)Oc2ccccc2C(=O)N3Cc2ccccc2F)c1 | 15% | 6%
35 | O=C(NC1C2CC3CC(C2)CC1C3)c1cccc(I)c1 (stereo not given) | 0% | 0%
36 | CC(=O)c1ccc(NC(=O)CSc2ncc(-c3ccc(F)cc3)o2)cc1 | 2% | -17%
37 | Cc1ccc(C(C)C)cc1OCC(=O)N1CCN(c2nccs2)CC1 | -2% | 0%
38 | CSCc1c(C(=O)NCc2nnc3n2CCCCC3)oc2ccccc12 | -1% | -5%
39 | CCOc1ccc2nc(N3CCCC(C(=O)NCCc4ccc(OC)cc4OC)C3)sc2c1 (stereo not given) | 97%[activator] | 20%
40 | COc1ccc(OCCN(C)C(=O)c2cc(C3CC3)nc3ccccc23)cc1 | -26% | 32%[activator]

Reprinted from the part before: 7 entries; new compounds follow.
nr | canonical_smiles | StopGo FLuc | 2A Renilla
34 | COc1ccc(OC)c(NC(=O)N2CCC3(CC2)Oc2ccccc2C(=O)N3Cc2ccccc2F)c1 | 15% | 6%
35 | O=C(NC1C2CC3CC(C2)CC1C3)c1cccc(I)c1 (stereo not given) | 0% | 0%
36 | CC(=O)c1ccc(NC(=O)CSc2ncc(-c3ccc(F)cc3)o2)cc1 | 2% | -17%
37 | Cc1ccc(C(C)C)cc1OCC(=O)N1CCN(c2nccs2)CC1 | -2% | 0%
38 | CSCc1c(C(=O)NCc2nnc3n2CCCCC3)oc2ccccc12 | -1% | -5%
39 | CCOc1ccc2nc(N3CCCC(C(=O)NCCc4ccc(OC)cc4OC)C3)sc2c1 (stereo not given) | 97%[activator] | 20%
40 | COc1ccc(OCCN(C)C(=O)c2cc(C3CC3)nc3ccccc23)cc1 | -26% | 32%[activator]
41 | COc1ccc(N2CC(NC(=O)c3ccc(S(=O)(=O)N4CCCC4)cc3)CC2=O)cc1 (stereo not given) | -9% | -5%
42 | Cc1cc(C)c(S(=O)(=O)NCC(c2ccco2)N2CCOCC2)c(C)c1 (stereo not given) | -10% | 176%[activator]
43 | COc1ccc(NC(=O)c2nn(-c3ccccc3)ccc2=O)c(OC)c1 | 35%[activator] | 11%
44 | CNc1nnc(Sc2ccc(S(=O)(=O)NC(C)C)cc2[N+](=O)[O-])s1 | -16% | -7%[1.06 µM]
45 | CC(C)c1nn2c(=O)cc(COC(=O)COc3ccccc3F)nc2s1 | -9% | -5%
46 | CCc1cccc(C)c1NC(=O)c1cc(S(=O)(=O)N(Cc2ccc(C(=O)OC)cc2)Cc2ccc(OC)c(OC)c2)ccc1F | -3% | 17%
47 | COCCNC(=O)c1ccc(-c2nc(CN3CCc4ccccc43)c(C)o2)cc1 | -6% | -2%
48 | Cc1ccc(NC(=O)Cn2c(=O)n(CC(=O)NCCc3ccccc3)c(=O)c3ccccc32)cc1 | -21% | -15%
49 | COCCCNc1nc2c(c(=O)[nH]c(=O)n2C)n1Cc1ccccc1 | 25% | 20%
50 | c1cc2c(cc1-c1csc(NC3CCCC3)n1)OCCCO2 | 172%[activator] | 11%
51 | C/C(=N\NC(=O)c1ccncc1)C1CC1 | 0% | 5%
52 | Cc1ccccc1-c1nnc(SCC(=O)N(C)C2CCS(=O)(=O)C2)n1C (stereo not given) | -13% | -10%
53 | Cc1ccc(OCC(=O)Nc2nnc(SCc3cc(=O)n4cccc(C)c4n3)s2)cc1 | -7% | -3%
54 | N#Cc1c(SCC(=O)N2CCCC2)nc(N2CCCCC2)c2c1CCCC2 | -27% | -12%
55 | CCC1CCc2nc3sc(C(=O)Nc4ccc(F)c(Cl)c4)c(N)c3cc2C1 (stereo not given) | -1% | -16%
56 | O=C(NC1(C(F)(F)F)C(=O)Nc2c1c(=O)[nH]c(=O)n2-c1ccc(Cl)cc1)c1ccccc1F (stereo not given) | 46%[activator] | 53%[activator]
57 | Cc1cc(C)n2nc(SC(C)C(=O)Nc3cc(Cl)cc(Cl)c3)nc2n1 (stereo not given) | -2% | 10%
58 | CCOC(=O)c1cnc(NC2CCCC2)c2ccccc12 | 107%[activator] | 13%
59 | CCCc1cc(C(=O)NC(C)CC)sc1C (stereo not given) | 0% | 16%
60 | CCOC(=O)c1oc2cc(OCC(N)=O)ccc2c(=O)c1-c1ccc(OC)c(OC)c1 | -3% | -8%
61 | Cc1cnc2c(c1SCC(=O)N(C)c1ccccc1)c(=O)n(C)c(=O)n2C | -5% | 3%
62 | O=S(=O)(Nc1ccc2cn[nH]c2c1)c1ccc(Cl)cc1C(F)(F)F | -2% | 108%[activator]
63 | Cc1ccc(S(=O)(=O)c2cnc(SCC(=O)Nc3cccc(Cl)c3)nc2N)cc1C | -9% | 10%
64 | CC(=O)NC(=O)c1ccccc1O | -1%[11.5 µM] | -2%
65 | Cc1c(C(=O)OCC(=O)NCC2CCCO2)sc2ccccc12 (stereo not given) | 10% | -6%
66 | N#Cc1nc(-c2ccccc2)oc1NCC(c1cccs1)N1CCOCC1 (stereo not given) | ? | ?
67 | CC(=O)Nc1ccc(NC(=O)c2ccc3c(c2)CCN3S(=O)(=O)c2ccc(C)cc2)cc1 | -8% | -10%
68 | CCc1ccc2oc(-c3cc(NC(=O)C(C)C)ccc3O)nc2c1 | 52%[activator] | -1%
69 | Cc1cc(C(=O)Nc2ccccn2)c2ccccc2n1 | 20% | -7%
70 | CCOc1ccc(Br)cc1CNCCSc1nnnn1-c1ccccc1 | -15% | -3%
71 | CC(C)N(Cc1ccccc1)C(=O)CCS(=O)(=O)c1ccc2c(c1)oc(=O)n2C | -4% | -16%
72 | CCOc1ccccc1NC(=O)CN1C(=O)COc2ccc(S(=O)(=O)Nc3ccccc3)cc21 | -20% | 118%[activator]

The listing continues:
#	SMILES	StopGo FLuc	2A Renilla
73	CCOC(=O)C1(C)C=C(Nc2cccc(C(=O)O)c2)C(=O)N1c1ccccc1 (stereo not given)	265%[activator]	-20%
74	CNC(=O)c1ccc(-c2nc(CN3CCN(C(=O)Nc4ccc(C)c(F)c4)CC3)c(C)o2)cc1	84%[activator]	9%
75	CNC(=O)NC(=O)C(C)Sc1nc(C2CC2)nc2ccccc12 (stereo not given)	2%	-10%
76	CCOc1ccccc1NC(=O)CN1CCCN(Cc2cccc(Cl)c2)S1(=O)=O	-21%	20%
77	Cc1c(C(=O)NCC(c2ccc(Cl)cc2)N2CCOCC2)oc2ccccc12 (stereo not given)	-5%	5%
78	O=c1[nH]c(SCc2ccc([N+](=O)[O-])cc2)nc2c1CCCC2	8%	7%
79	Cc1ccc(Cl)cc1N1CCN(C(=O)c2cn(CC(C)C)c(=O)c3c2c2ccccc2n3C)CC1	-15%	7%
80	COc1cccc(NC(=O)CSc2ncc3c(n2)-c2ccc(Cl)cc2N(C)S3(=O)=O)c1	-6%	-17%
81	COc1ccc(CNS(=O)(=O)/C=C/c2ccc(OC)cc2CNC(=O)OC(C)(C)C)cc1	?	134%[activator]
82	CCCCCc1ccc(OC(=O)c2ccc(Cl)cc2)cc1	2%	-7%
83	CCOc1ccc(C(=O)NCc2nc3cccnc3n2Cc2ccc(F)cc2)cc1OCC	-15%	-8%
84	CCc1ccc(-c2csc(-c3cc4cc(Br)ccc4oc3=O)n2)cc1	-18%	-6%
85	Cc1cc(C(=O)N2CCN(S(=O)(=O)c3ccc(C(C)C)cc3)CC2)c(C)n1C(C)C	-1%	-22%
86	Cc1ccc(NC(=O)C2=CC(c3cccs3)=NS(=O)(=O)N2C)cc1	42%[activator]	120%[activator]
87	CCOc1ccc(/C(O)=C2\C(=O)C(=O)N(c3nccs3)C2c2ccc(C)cc2)cc1 (stereo not given)	2%	-24%
88	O=C(NCCSCc1ccccc1Cl)C1CCN(S(=O)(=O)Cc2ccccc2)CC1	-12%	-7%
89	COc1ccc(-c2noc(-c3ccc(NC4CCCCC4)c([N+](=O)[O-])c3)n2)cc1	-13%	-7%
90	COc1ccc(Nc2ncnc3scc(-c4ccc(F)cc4)c23)cc1Cl	8%	8%
91	CCc1ccc(CNC(=O)C2CCCN(C(=O)c3cccc(C(F)(F)F)c3)C2)cc1 (stereo not given)	?	-20%
92	COc1ccc(-c2noc(CSc3nnc(-c4ccncc4)n3-c3ccc(OC)cc3)n2)cc1	-18%	-21%
93	Cc1ccc2nc(Cl)c3cc(C(=O)N(C)C4CCCCC4)sc3c2c1	-13%	-8%
94	Cc1ccc(N2CCn3c2nc2c3c(=O)n(CCCc3ccccc3)c(=O)n2C)cc1C	-7%	-13%
95	COc1cccc(-c2nnc(-c3cc4cc(Cl)ccc4oc3=O)o2)c1	-3%	6%
96	Cc1ccccc1NS(=O)(=O)c1ccc(C(=O)N(C)CC(=O)Nc2cccc3ccccc23)cc1	-29%	-9%
97	CC(C)CNC(=O)CN1CCN(c2nc(C(F)(F)F)nc3ccccc23)CC1	0%	-18%
98	Cc1cc(C(=O)NC(C)c2ccccc2Cl)c2cnn(C(C)C)c2n1 (stereo not given)	2%	17%
99	Cc1cccc(-n2cc(-c3ccccc3)c3c(NC4CCCC4)ncnc32)c1	-26%	-18%
100	CC(=O)c1c(C)[nH]c(C(=O)C(C)OC(=O)c2ccc(C)c(O)c2)c1C (stereo not given)	?	?
101	Cc1ccc(C)c(NC(=O)CCn2cnnn2)c1	2%	-9%
102	O=C(NCc1ccncc1)c1ccc2ccccc2n1	0%	1%
103	CCn1nc(-c2ccc(C)c(S(=O)(=O)NCc3ccc(C)cc3)c2)c2c(c1=O)CCCC2	1%	132%[activator]

From PubChem BioAssay

Outcome played no part in choosing rows; overall some 0.55% were active at least once.
